From PubChem
ALR H2O2 inh: human ALR oxidase inhibition via reduced H2O2. 290,000 tested, 3.8% active. purified ALR, DTT oxidation, H2O2 HRP-luminol luminescence. inhibition, % (concentration not given with the values). P55789;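 active means mean and each replicate at 75% or more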;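 further: stock transfer was 7.5 nL into about 7.5 µL; 0% = neutral wells and 100% = wells with inactivated enzyme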
Beta apoptosis: beta cell apoptosis inhibition | INS-1E cytokine-induced death, ATP luminescence, 48 h; percent of positive-control rescue, neutral wells zero | AID 435005 | 300,000 tested, 0.8% active | protection from apoptosis, % (no concentration beside the values);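 active means all replicates at 75% or more, or half of them and the mean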;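 further: 0% = cytokine-treated negative control wells and 100% = positive control rescue; higher means more ATP so stronger rescue from cytokine killing; wells of about 40 µL received 100 nL stock; the first replicate is given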
T cruzi inh: T. cruzi replication inhibition; T. cruzi beta-gal in NIH3T3, luminescence, 90 h; inhibition, % (no concentration beside the values); 300,000 tested, 1.4% active;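 active means mean inhibition across valid replicates above about 55%, limit read from the data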;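 further: signal also drops with host cell toxicity which is not excluded here; 0% = plate median of DMSO wells and 100% = zero luminescence signal; higher percent means less beta-gal luminescence so fewer parasites; stock transfer was 50 nL into about 50 µL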
Beta2AR agonist: agonists of human beta-2 adrenergic receptor inducing internalization; P07550; Am2.2-beta2AR cells, FAP receptor internalization, flow cytometry; reference of the scale not given here; response, % (concentration not given with the values); 340,000 tested, 0.43% active; AID 504454;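 active means response above a set limit, near 3 SD of response in nonfluorescent compounds, cut at about 42% in these data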;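 further: stock transfer was 100 nL into about 11 µL; a reference agonist was the positive control; negative values mostly stem from fluorescent compounds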
LANA-H2A inh: blocks KSHV LANA binding to histone H2A/H2B; 320,000 tested, 0.6% active; AID 2629; inhibition, % (test concentration not listed); cell-free LANA-H2A/H2B peptide, fluorescence polarization; Q9QR71; in the data active means inhibition mostly above about 10%, no sharp cut-off; inactive means mostly below about 6.7%;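 further: stock transfer was 7.5 nL into about 10 µL; 0% = median of vehicle wells and 100% = median of positive control wells; one replicate is shown; the record names a cut of 25% in any replicate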
Target sequence (Q9QR71 whole entry, looked up): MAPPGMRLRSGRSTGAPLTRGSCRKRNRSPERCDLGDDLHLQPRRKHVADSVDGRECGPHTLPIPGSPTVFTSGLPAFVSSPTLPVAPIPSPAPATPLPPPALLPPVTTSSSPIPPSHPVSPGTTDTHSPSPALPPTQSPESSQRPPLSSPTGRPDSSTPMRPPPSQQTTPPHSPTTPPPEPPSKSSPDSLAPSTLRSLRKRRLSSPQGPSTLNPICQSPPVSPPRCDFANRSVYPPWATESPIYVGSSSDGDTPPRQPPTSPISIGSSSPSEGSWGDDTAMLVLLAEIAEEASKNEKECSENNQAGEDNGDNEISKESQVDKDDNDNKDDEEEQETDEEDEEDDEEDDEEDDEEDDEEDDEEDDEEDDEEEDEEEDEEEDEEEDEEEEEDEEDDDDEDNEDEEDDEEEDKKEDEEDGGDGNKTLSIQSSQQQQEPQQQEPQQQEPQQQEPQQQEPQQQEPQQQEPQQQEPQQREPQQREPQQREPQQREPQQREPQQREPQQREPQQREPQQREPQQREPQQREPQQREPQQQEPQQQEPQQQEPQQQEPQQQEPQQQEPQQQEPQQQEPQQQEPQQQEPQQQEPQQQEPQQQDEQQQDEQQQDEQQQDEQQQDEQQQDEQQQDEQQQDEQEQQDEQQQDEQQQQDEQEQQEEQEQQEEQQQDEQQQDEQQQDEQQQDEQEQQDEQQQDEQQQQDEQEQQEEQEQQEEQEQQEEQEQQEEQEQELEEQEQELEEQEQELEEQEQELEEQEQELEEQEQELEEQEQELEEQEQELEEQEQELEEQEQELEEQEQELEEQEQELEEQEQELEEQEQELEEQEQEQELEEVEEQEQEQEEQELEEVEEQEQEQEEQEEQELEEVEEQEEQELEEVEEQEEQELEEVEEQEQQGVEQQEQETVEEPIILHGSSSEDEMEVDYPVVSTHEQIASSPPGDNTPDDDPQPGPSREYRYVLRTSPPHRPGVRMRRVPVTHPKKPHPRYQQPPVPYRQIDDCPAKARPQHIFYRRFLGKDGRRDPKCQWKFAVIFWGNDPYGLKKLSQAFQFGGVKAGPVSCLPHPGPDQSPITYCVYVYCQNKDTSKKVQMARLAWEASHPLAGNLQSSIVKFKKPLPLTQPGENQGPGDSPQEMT
Bfl-1 A1 inh: inhibitors of the anti-apoptotic protein A1, read as caspase activation. MEF A1-2A-BIM cells, Caspase-Glo 3/7 luminescence, 3 h; percent of clofoctol response, vehicle zero. caspase activation, % (test concentration not listed). 330,000 tested, 0.066% active;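 active means over half of replicate activation scores above 10%, or exactly half above 10 with the replicate mean above 10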;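 further: wells of about 30 µL received 50 nL stock; many hits fall short of the cut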
Ecoli rRNA inh: inhibitors of bacterial rRNA selective over humanized ribosomes | 350,000 tested, 1.6% active | E. coli WT GFP vs humanized-ribosome RFP mutants, fluorescence, 24 h; stronger effect = lower value; DMSO median 0, no signal -100 | GFP signal change (wild-type ribosome), % (no concentration beside the values);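 active means significant combined selectivity score with lowered wild-type GFP, culture density cut under 30%, mutant RFP and density less affected; inactive means any of these conditions unmet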; further: one replicate is shown; some compounds called inactive have numbers as strong as hits
Calb FLC: affects C. albicans growth with fluconazole; C. albicans CaCi-2 (fluconazole-resistant clinical isolate) + fluconazole, Alamar Blue growth, 48 h; growth inhibition, % (no concentration beside the values); 300,000 tested, 0.57% active;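 active means most replicates above 75%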;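 further: all wells also contain fluconazole at 8 µg/ml as a sub-toxic cotreatment; 0% = median of DMSO wells and 100% = median of geldanamycin control wells; wells of about 8 µL received 7.5 nL stock; the first replicate is given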
Ecoli rRNA inh OD600: second read-out of Ecoli rRNA inh, no call of its own (marks repeat the call); OD600 change, %; measured here: OD600 growth;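 optical density of the mix in the first replicate; 0 = DMSO median and -100 = no signal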
Ecoli rRNA inh RFP: also measured in Ecoli rRNA inh; calls as there; RFP signal change, %; measured here: RFP humanized mutant strains;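 first replicate; 0 = DMSO median and -100 = no signal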
Active calls of the source: *; · = no result given.

Structure,ALR H2O2 inh,Beta apoptosis,T cruzi inh,Beta2AR agonist,LANA-H2A inh,Bfl-1 A1 inh,Ecoli rRNA inh,Ecoli rRNA inh OD600,Ecoli rRNA inh RFP,Calb FLC
N#Cc1ccccc1S(=O)(=O)N1CCN(C(=O)C2COc3ccccc3O2)CC1 (configuration not stated),-4.3,1.3,·,1.8,7.4,1.0,0.4,-3.0,1.8,·
COc1cc(/C=N/N2CCN(Cc3ccccc3)CC2)cc(OC)c1OC(C)=O,-22.5,-2.6,-9.6,3.1,0.7,-0.2,6.1,2.6,0.3,4.6
CCn1c(CC(=O)Nc2ccccc2F)nnc1SCC(=O)N1CCOCC1,4.3,-3.2,-11.7,-4.5,-2.7,-0.8,2.9,12.2,-0.1,2.4
O=C(c1cc(-c2ccccc2)nc2ccccc12)N1CCCc2ccccc21,-3.2,-8.6,0.0,9.9,-3.1,-0.3,·,·,·,16.0
COC(=O)c1c(C)oc2c1cc(NS(=O)(=O)c1cccs1)c1ccccc12,-24.9,-7.9,-0.2,11.3,7.6,1.2,·,·,·,4.0
O=C(CN1CCN(c2ccc(F)cc2)CC1)NCc1ccc(Cl)cc1,36.2,0.7,30.0,-3.0,-2.1,0.1,-3.0,-0.4,0.0,7.4
Cc1ccc(C(C)C)c(OCC(=O)OCC(=O)NC2CC2)c1,-1.4,-1.0,·,1.5,4.9,1.1,-4.6,0.4,-1.0,·
CC(C)(C)NC(=O)NC(=O)CN1CCC(Cc2ccccc2)CC1,-6.9,1.7,22.4,3.3,0.5,0.0,-31.9*,-22.7*,-1.6*,-11.5
O=C(NCCc1ccccc1)c1ccc(NC(=O)c2cccnc2)cc1,-5.0,·,-19.2,-0.3,-8.0,0.0,-1.5,8.2,-1.8,-1.9
COc1cc2c(C#N)c(N3CCOCC3)nc(N)c2c(N)n1,48.5,2.9,-4.2,3.4,3.2,1.2,·,·,·,6.0
CCc1nnc(NC(=O)CSCc2cc(=O)n3cc(C)sc3n2)s1,-0.7,-5.0,-9.9,-0.8,2.2,-1.7,6.1,10.2,2.2,0.3
O=C(Nc1ccc(CN2CCS(=O)(=O)CC2)cc1)c1ccc(F)cc1,2.9,-3.0,·,1.3,-3.0,1.0,2.8,2.7,-1.2,10.6
CN(CC(=O)Nc1ccccc1Cl)C(=O)COC(=O)CSc1ccc(F)cc1,5.4,-8.5,-3.8,-1.0,3.0,-0.4,9.5,-1.4,0.9,2.4
COc1ccc(/C=N/NC(=S)Nc2cccc(C(=O)O)c2)cc1OC,·,-0.8,-4.7,1.3,-1.1,0.2,-3.5,6.3,-0.8,13.5
O=C(c1ccc(Cl)c(S(=O)(=O)N2CCOCC2)c1)N1CCN(c2ccccn2)CC1,-1.1,1.2,·,-6.7,-3.2,-0.1,1.9,1.2,1.7,·
CC1(C)OC(c2ccccc2)=C/C(=C/C=C2C(=O)c3ccccc3C2=O)O1,-3.9,12.5,-8.9,-19.7,-4.9,-0.3,12.4,13.8,14.7,7.6
Cn1c(NC2CCCCC2)cc(=O)n(C)c1=O,-7.4,-1.1,-0.9,-3.7,1.5,1.3,15.3,17.7,-0.7,-4.0
COc1ccccc1C(=O)N1CCN(C(=O)COc2cccc(C)c2)CC1,-7.9,2.7,3.3,3.2,2.9,1.3,·,·,·,-1.5
CCCOC(=O)Nc1ccccc1C(N)=O,-3.1,-1.7,-13.2,-7.9,1.0,-0.1,·,·,·,-4.9
CC(=O)NCCn1c(SCc2cc(F)ccc2F)nc2ccccc2c1=O,·,0.3,68.2*,-8.2,-2.6,0.1,·,·,·,15.2
C/C(=N\Nc1nccnc1Cl)c1ccc([N+](=O)[O-])cc1,6.6,3.5,1.7,-5.4,1.1,0.1,·,·,·,6.1
O=C(CN1C(=O)NC2(CCCc3ccccc32)C1=O)c1ccc(Br)cc1 (configuration not stated),0.2,0.3,5.9,-2.3,2.2,-0.1,-36.1*,-28.5*,-8.2*,-5.2
N=c1c(C(=O)NC2CCCC2)cc2c(=O)n3ccccc3nc2n1C1CCCC1,-23.4,8.0,29.6,-18.3,1.4,0.8,·,·,·,-5.3
CCOC(=O)c1c(C)[nH]c(C(=O)OCC(=O)NCc2ccccc2)c1C,-4.0,-4.2,·,-5.2,-0.2,-0.4,-0.2,1.1,0.0,·
CCNC(=O)NC(=O)COC(=O)c1ccccc1SCC(=O)NC(=O)NCC,-9.5,-5.1,-3.5,0.8,-3.3,-15.4,·,·,·,5.2
O=C(Nc1ccccc1Cl)c1ccc2c(c1)N(Cc1ccc(F)cc1)C(=O)CS2=O (configuration not stated),-7.3,3.2,-3.8,-21.3,2.2,0.0,-23.0*,-29.7*,0.3*,2.3
O=C1COc2ccc3ccccc3c21,-15.9,-6.9,-15.6,30.6,-1.6,0.1,20.1,17.4,8.0,-0.6
CCOC(=O)[C@@H]1[C@H]2COc3cc(OC)ccc3[C@@H]2N2C(=O)N(c3ccc(C)cc3)C(=O)[C@]12C,-0.3,·,-10.7,-0.9,0.9,0.7,-3.7,5.5,-3.5,3.8
CCN(CC(=O)Nc1c(F)cccc1F)C(=O)CC1CCCCC1,32.0,-0.1,·,1.2,2.5,0.8,13.9,9.9,-0.2,·
COc1ccc(C(=O)N(C)Cc2ccc(C)o2)cc1OC1CCN(C(C)=O)CC1,1.0,-0.8,3.5,4.9,-1.6,-0.5,5.5,-2.4,0.1,-1.3
Cc1cc(NC(=O)CSc2nc(-c3ccccc3)cs2)no1,·,1.8,-1.0,-6.9,6.0,-2.2,·,·,·,-5.6
O=c1[nH]c(/C=C/c2cccnc2)c([N+](=O)[O-])c(=O)[nH]1,16.1,-4.2,-5.1,6.2,0.8,0.4,14.9,5.4,1.0,-7.6
COc1cc(NC(=O)C2CCC(CNS(=O)(=O)c3csc(C(N)=O)c3)CC2)cc(OC)c1 (configuration not stated),1.7,3.2,-22.6,-6.1,0.8,1.1,-10.6,4.5,10.8,6.4
CCSc1nc(=S)n(Cc2ccccc2)c(C)c1C(C)=O,1.3,-5.9,-3.2,3.9,-1.0,-1.2,-1.8,-1.0,-5.7,4.5
CSC[C@H](NC(=O)Cc1c(C)c2cc3c(C)c(C)oc3cc2oc1=O)C(=O)N[C@@H](Cc1ccccc1)C(=O)O,7.6,-1.7,-10.0,-1.6,7.6,-0.1,·,·,·,4.8
Cc1cccc(C)c1OC(=O)CN(c1ccc(Cl)cc1)S(C)(=O)=O,-9.0,-2.4,-7.1,-3.2,-2.1,-0.5,·,·,·,-1.3
CN(C)c1c2ccccc2nc2c(F)c(F)c(F)c(F)c12,0.0,6.3,26.9,30.9,3.0,-0.1,·,·,·,16.0
COc1ccc(OC(C)C(=O)NCCc2nc3ccccc3[nH]2)cc1 (configuration not stated),-8.3,·,-5.7,-4.1,-1.5,0.0,·,·,·,14.5
C1CN(c2nc3nonc3nc2N2CCOCC2)CCO1,-1.1,4.4,-7.7,·,0.8,-2.1,·,·,·,12.8
Cc1cc(C(=O)NNC(=O)c2nn(C)c(=O)c3ccccc23)c(C)o1,0.2,0.1,-9.6,0.6,2.3,0.8,18.2,8.1,-8.3,-1.8
O=C(COC(=O)/C=C/c1cccc(Cl)c1)Nc1ccccc1-c1ccccc1,-5.8,0.1,-15.5,·,0.5,-0.5,·,·,·,-2.0
CCC(CC)C(=O)Nc1c2c(nn1-c1ccc(F)cc1)CS(=O)(=O)C2,5.1,0.3,-4.3,-3.3,-2.7,0.4,25.0,14.2,4.1,0.1
COC(=O)c1cc(COC(=O)COc2ccc(C)c(C)c2)oc1C,-56.9,-1.1,-15.2,0.9,-2.1,-1.3,7.3,11.6,-1.6,1.6
O=C(CS(=O)(=O)c1ccccc1)NCc1ccccc1,1.3,-0.9,-11.2,8.4,-3.5,-0.6,4.6,4.3,-2.2,9.9
CC(=O)Nc1cc2nc(C)n(Cc3ccc([N+](=O)[O-])cc3)c2nc1C,-2.9,-5.6,-0.9,0.2,-3.0,-0.3,13.2,9.1,3.1,1.7
CCCn1cc(CN2CCCC(C(=O)c3ccc4c(c3)OCO4)C2)c(C)n1 (configuration not stated),-2.8,-4.4,9.1,-1.7,1.6,0.3,7.5,7.3,0.6,-0.9
COc1ccccc1NC(NC(=O)c1cccnc1)C(Cl)(Cl)Cl (configuration not stated),88.0*,-0.7,9.2,-0.7,2.1,1.8,-30.0,-27.4,2.0,-21.2
O=C(OCC(=O)N1CCOCC1)c1cccc(F)c1,-3.9,-3.8,-6.5,-3.6,0.5,-2.3,8.3,5.5,0.0,-8.0
CCCn1c(N)c(C(=O)CSc2nnc(C)n2Cc2ccccc2)c(=O)n(C)c1=O,-11.6,2.9,-4.3,-2.9,-0.6,-1.1,·,·,·,-3.4
Cc1cc(F)ccc1S(=O)(=O)N1CCC2(CC1)OCCN2S(=O)(=O)c1cccs1,-1.2,3.9,14.7,9.6,1.0,-0.6,-6.2,-7.8,3.4,2.5
COc1ccc(-c2cc(C(=O)Nc3cc(OC)c(OC)c(OC)c3)no2)cc1OC,·,·,-14.9,-4.3,·,·,-2.2,8.1,-3.2,-0.9
O=C(CSc1nnc(-c2ccccc2NC(=O)c2ccccc2)o1)OC1CCCCC1,·,·,·,11.8,-5.5,1.4,·,·,·,-10.0
CCOC(=O)c1cnn(-c2ccc(C)cc2)c1N,-13.8,4.0,1.3,-3.6,-3.9,-0.4,·,·,·,1.4
CCN1CCCC1CNC(=O)CSCc1nc(-c2ccccc2C)oc1C (configuration not stated),99.7*,-2.3,1.1,-4.6,0.7,0.1,·,·,·,-6.2
CCOc1cc2[nH]c(=S)n(CCOC)c(=O)c2cc1OCC,2.4,-0.4,0.6,6.3,-1.5,-0.4,·,·,·,13.0

An excerpt. The share of hits here may be higher or lower than overall.
